Compound activity (PubChem)
Pol III holo inh = blocks replication by bacterial DNA polymerase III holoenzyme | reconstituted DNA polymerase III holoenzyme replication, biochemical | Potency, µM (titrated, usually from 57.1 µM), for the others: top-dose activity change, negative = inhibition | hit rate 0.25% among 71,000 | AID 603; note: potency is the fitted concentration of half-maximal effect; % is set by controls: 0 for no effect and ±100 for the full control effect
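Reconstituted *E. coli* holoenzyme (0.35 nM Pol III, 1 nM beta, 154 nM SSB, 2 nM primase) was preincubated with compound for 15 min at RT. Synthesis on 1.4 nM ssM13Gori ran 35 min, then was stopped with PicoGreen/EDTA and read as dsDNA fluorescence.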
Tau filament bind = tau filament binding; AID 596; hit rate 2% among 71,000; Potency, µM (doses to about 57.1 µM), inactives show at the highest dose activity change, negative = inhibition; recombinant tau filaments, thioflavin S fluorescence, 15 h; filaments grown with octadecylsulfate alongside compound;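 note: potency is the fitted concentration of half-maximal effect; % is set by controls: 0 for no effect and ±100 for the full control effect; actives lower thioflavin S fluorescence by blocking filaments or displacing dye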
Target sequence (P10636 whole entry, looked up): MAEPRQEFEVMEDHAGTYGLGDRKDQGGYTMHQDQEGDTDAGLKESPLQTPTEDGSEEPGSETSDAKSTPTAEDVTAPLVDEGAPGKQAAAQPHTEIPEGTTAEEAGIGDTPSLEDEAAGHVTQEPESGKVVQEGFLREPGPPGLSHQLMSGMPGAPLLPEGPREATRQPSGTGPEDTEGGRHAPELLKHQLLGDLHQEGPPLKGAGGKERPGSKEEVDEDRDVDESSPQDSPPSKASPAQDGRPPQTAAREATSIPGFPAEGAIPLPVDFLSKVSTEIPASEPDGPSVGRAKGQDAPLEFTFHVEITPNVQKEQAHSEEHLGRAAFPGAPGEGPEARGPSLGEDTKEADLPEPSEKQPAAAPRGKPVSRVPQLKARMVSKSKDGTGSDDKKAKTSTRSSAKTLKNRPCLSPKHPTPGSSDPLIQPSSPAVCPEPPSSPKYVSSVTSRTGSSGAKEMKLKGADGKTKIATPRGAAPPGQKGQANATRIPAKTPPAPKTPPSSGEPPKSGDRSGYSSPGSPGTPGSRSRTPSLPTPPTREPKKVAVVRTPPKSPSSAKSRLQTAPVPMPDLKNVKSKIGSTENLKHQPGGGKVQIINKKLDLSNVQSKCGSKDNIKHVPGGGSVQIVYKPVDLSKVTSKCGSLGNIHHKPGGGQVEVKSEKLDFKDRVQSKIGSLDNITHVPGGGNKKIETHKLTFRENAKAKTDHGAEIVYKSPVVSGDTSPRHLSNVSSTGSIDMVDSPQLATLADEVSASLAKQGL
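ThS-based fibril read: tau 1 uM final, inducer ODS 30 uM final, 37 C for 15 h, ex 450/em 510 nm.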
HEK293 cAMP ctrl = counter-screen for TSHR agonists: cAMP increase in parental HEK293; parental HEK293 CNG cAMP sensor, membrane potential fluorescence; Potency, µM (highest dose often 57.1 µM), for inactives: at the top dose activation, usual class: activators; hit rate 2.5% among 73,000; note: potency is the fitted concentration of half-maximal effect; % of control where 0% means no effect; nearly all actives have a fitted effect of over 55% in size
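Counterscreen for endogenous-receptor signalling: CNG-channel HEK 293 cells report cAMP rise by membrane depolarization. After 60 min dye equilibration with 100 uM RO 20-1724, compounds incubated 30 min before bottom-read fluorescence at 590 nm.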
BRCT PPI red = BRCT-phosphoprotein interaction inhibition (red fluorophore); BRCT-phosphopeptide binding, red fluorescence polarization; hit rate 0.03% among 75,000; Potency, µM (highest dose often 76.9 µM), for inactives: top-dose activity change, negative = inhibition, hits mostly inhibitors; note: % is set by controls: 0 for no effect and ±100 for the full control effect
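Fluorescence polarization: 100 nM His-tagged BRCA1 BRCT with 100 nM TAMRA-labelled phospho-BACH1 decapeptide, phosphate buffer pH 7.3 with 150 mM NaCl, DTT, 0.01% Tween 20; 12 min RT. Binding inhibition seen as FP decrease.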
USP2a inhib = blocks human ubiquitin-specific protease USP2a | Potency, µM (titrated, usually from 38.3 µM), for the others: at the top dose activity change, negative = inhibition, usual class: inhibitors | hit rate 0.1% among 60,000 | O75604 | USP2a enzymatic assay, qHTS inhibition;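 note: potency is the fitted concentration of half-maximal effect; nearly all actives have a fitted effect of over 60% in size; plate controls were DMSO for no effect and NEM full inhibition control for full effect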
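Inhibition is measured in a cell-free coupled assay with 20 nM USP2 core, 20 nM Ub-PLA2 and 20 uM NBD C6-HPC, 2.5 h incubation. Activity normalized to NEM control.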
ALOX15 inhib = inhibitors of human 15-lipoxygenase (ALOX15); hit rate 1.4% among 74,000; Potency, µM (series often up to 57.1 µM), inactives show top-dose activity change, negative = inhibition, most hits filed as inhibitors; AID 887; purified 15hLO-1, xylenol orange hydroperoxide absorbance; P16050; note: potency is the fitted concentration of half-maximal effect; % is set by controls: 0 for no effect and ±100 for the full control effect; nearly all actives have a fitted effect of over 55% in size
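Inhibition is scored from a chromogenic endpoint. After 15 min enzyme-compound contact, arachidonic acid (50 uM final) reacts 6 min with 40 nM 15hLO-1 at room temperature, then Fe-XO reagent is added for 30 min and absorbance ratio recorded.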
Rhodamine fluor = rhodamine region autofluorescence. Rhodamine-region fluorescence, 547/598 nm, Tris buffer; stronger effect = higher value. max dye-equivalent concentration, M. hit rate 0.05% among 59,000. AID 594; in the data active = max dye-equivalent concentration above about 11 nM; inconclusive = between about 1.1 nM and that limit
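Read-out is relative fluorescence at 547 nm excitation and 598 nm emission, expressed as dye-equivalent concentration using rhodamine standards on every plate. Each compound was profiled across a concentration series after 15 min in 100 mM Tris, pH 8.0.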
BRCT PPI green = BRCA1 BRCT-phosphoprotein interaction inhibition; P38398; BRCA1 BRCT-phosphopeptide binding, green fluorescence polarization; Potency, µM (titrated, usually from 76.9 µM), for inactives: at the top dose activity change, negative = inhibition, actives largely listed as inhibitors; hit rate 0.05% among 75,000; AID 875;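 note: potency is the fitted concentration of half-maximal effect; plate controls were peptide without protein for full effect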
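Fluorescence polarization: His-tagged BRCT (~35 kDa BRCA1 C-terminus, 250 nM) bound to 100 nM fluorescein-labeled phosphorylated 10-aa BACH1 peptide, pH 7.3 phosphate buffer with DTT and Tween 20. Compounds incubated 12 min at room temperature; inhibition read as lowered polarization.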
HADH2 inh = inhibitors of human HADH2 dehydrogenase; hit rate 3.4% among 73,000; Q99714; Potency, µM (top dose mostly 57.1 µM), inactives show at the top dose activity change, negative = inhibition, hits mostly inhibitors; recombinant HADH2, NADH fluorescence, beta-hydroxybutyryl-CoA; note: potency is the fitted concentration of half-maximal effect; % is set by controls: 0 for no effect and ±100 for the full control effect; nearly all actives have a fitted effect of over 60% in size; many of its hits are not listed in these tables
Target sequence (Q99714 whole entry, looked up, one chain of several): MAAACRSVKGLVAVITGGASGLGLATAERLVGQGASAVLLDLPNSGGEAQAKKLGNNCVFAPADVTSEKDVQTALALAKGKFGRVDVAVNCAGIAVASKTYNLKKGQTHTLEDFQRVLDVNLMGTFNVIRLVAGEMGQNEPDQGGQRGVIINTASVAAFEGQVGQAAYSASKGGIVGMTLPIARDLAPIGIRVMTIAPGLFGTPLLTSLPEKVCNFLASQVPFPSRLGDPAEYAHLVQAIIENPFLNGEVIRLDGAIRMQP
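Buffer 100 mM Tris-HCl pH 9.0/0.01% Tween-20; HADH2 20 nM; NAD+ 1 mM; beta-hydroxybutyryl-CoA 90 uM (all final). 15 min cpd preincubation, RT.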
Numbers without * were called inactive; i = inactive; ? = inconclusive; nt = no result given; & = joins results of further samples; ! = a repeat was not active; [ ] = another dose, or the depositor's remark. Unless noted, calls come from the whole dose curve; as a rule, active = well fitted curve in the direction sought with a large enough effect; inconclusive = small, poorly fitted or top-dose-only effect, or another doubt; inactive = no such curve, though single readings can be large; an effect the other way counts as inactive or inconclusive.

SMILES	Pol III holo inh	Tau filament bind	HEK293 cAMP ctrl	BRCT PPI red	USP2a inhib	ALOX15 inhib	Rhodamine fluor	BRCT PPI green	HADH2 inh
COC(=O)c1ccc(C(=O)OC)c(N)c1	2%	5%	22%	0.1%	-3%	7%	i	-1.9%	?
CCCCn1c(SCC(=O)Nc2cccc(OC)c2)nc2ccc(N3CCOCC3)cc2c1=O	-1%	-21%	-13%	-1.9%	39%[activator]	?	i	-1.6%	?
Cc1cc(NCCN2CCOCC2)n2c(nc3ccccc32)c1C#N	-4%	-5%	0%	-0.3%	-7%	2%	i	-0.2%	16µM*
CN(C)CCCn1c(N)c(C#N)c2nc(C#N)c(C#N)nc21	3%	12%	12%	-1.2%	-9%	10%	i	0.0%	-18%
Cc1ccc(-c2nc(-c3nccc4ccccc34)oc2-c2ccccc2)cc1	-13%[11.4 µM]	4%[11.4 µM]	7%[11.4 µM]	0.5%[15.4 µM]	nt	19%[11.4 µM]	i	-0.9%[15.4 µM]	0%[11.4 µM]
CN1CCN(c2ncc3nc(-c4cc(F)cc(F)c4)c(=O)n(CCC#N)c3n2)CC1	-9%	-26%	6%	0.5%	187%[activator]	49%[activator]	i	-2.6%	23%
COCCOC(=O)C1=C(C)NC2=C(C(=O)CC(c3cccs3)C2)C1c1ccsc1 (stereo not drawn)	-3%	-3%	2%	-0.2%	nt	-7%	i	-1.0%	-25%
Cn1cc(-c2nc3cnc(N4CCNCC4)nc3n(Cc3ccc(F)cc3)c2=O)c2ccccc21	-1%	i	-15%	-1.6%	105%[activator]	-2%	i	-2.6%	4%
CN1CCN(c2ncc3nc(-c4ccccc4)c(=O)n(Cc4cccs4)c3n2)CC1	-6%	35%	15%	0.2%	134%[activator]	7%	i	0.8%	23%
CC1=C2C(=COC(C)C2C)C(=O)C(C(=O)O)=C1O (stereo not drawn)	nt	nt	nt	2.5%	-2%	-18%	nt	-2.0%[3.08 µM]	nt
O=c1c(-c2cccs2)nc2cnc(N3CCOCC3)nc2n1Cc1ccc(F)cc1	-8%	i	8%	1.5%	87%[activator]	11%	i	-0.9%	0%
CN1CCN(c2ncc3nc(-c4cc(F)cc(F)c4)c(=O)n(C4CC4)c3n2)CC1	-8%	16µM*	9%	0.6%	24%	-2%	i	-0.8%	5%
CCOc1ccc2nc(N3CCOCC3)nc(C)c2c1	-4%	83%	12%	-0.3%	14%	-4%	i	-1.5%	-7%
Cc1cc(-c2ccco2)n2c(nc3ccccc32)c1C#N	-10%	147%	40%	-0.6%	28%	-8%	i	7.8%	-1%
CC(C)(C)N1C(=O)Cc2c1nc(N)c1c(N)nc(N3CCCCC3CO)c(C#N)c21 (stereo not drawn)	-10%	7.9µM*	-27%	-0.4%	55%[activator]	20µM*	i	3.9%	?
CCn1c2ccccc2c2nc3cc(OC)c(OC)cc3nc21	-8%	i	20%	1.4%	39%[activator]	-21%	i	-0.5%	51%[activator]
Cc1cc(N=Cc2c(O)n(-c3ccc4c(c3)OCO4)c(=O)c3ccccc23)ccn1	-25%	145%	29%	0.5%	34%[activator]	-21%	i	6.9%	-3%
COc1cccc(Nc2ncc3nc(-c4cn(C)c5ccccc45)c(=O)n(C[C@H]4CCCO4)c3n2)c1	2%	412%	-10%	-0.3%	141%[activator]	2%	i	21%	6%
CC(C)Cn1c(N)c(S(=O)(=O)c2cccs2)c2nc3ccccc3nc21	-1%	24%	5%	-0.9%	19%	?	i	4.6%	32µM*
N#Cc1c(N2CCCC2)nc(N)c2c(N)nc(N3CCCC3)cc12	0%	-26%	-11%	-4.4%	3%	-6%	i	4.6%	45%[activator]

Ordered by value in BRCT PPI green (descending): some entries from above
compound,Pol III holo inh,Tau filament bind,BRCT PPI red,ALOX15 inhib,Rhodamine fluor,BRCT PPI green,HADH2 inh
Cc1cc(N=Cc2c(O)n(-c3ccc4c(c3)OCO4)c(=O)c3ccccc23)ccn1,-25%,145%,0.5%,-21%,i,6.9%,-3%
CCn1c2ccccc2c2nc3cc(OC)c(OC)cc3nc21,-8%,i,1.4%,-21%,i,-0.5%,51%[activator]
CN1CCN(c2ncc3nc(-c4cc(F)cc(F)c4)c(=O)n(C4CC4)c3n2)CC1,-8%,16µM*,0.6%,-2%,i,-0.8%,5%
CCOc1ccc2nc(N3CCOCC3)nc(C)c2c1,-4%,83%,-0.3%,-4%,i,-1.5%,-7%

Shown with values under each structure: part of the list above
Results follow in this order: Pol III holo inh	Tau filament bind	HEK293 cAMP ctrl	BRCT PPI red	USP2a inhib	ALOX15 inhib	Rhodamine fluor	BRCT PPI green	HADH2 inh
> CN(C)CCCn1c(N)c(C#N)c2nc(C#N)c(C#N)nc21
→ 3%	12%	12%	-1.2%	-9%	10%	i	0.0%	-18%
> COCCOC(=O)C1=C(C)NC2=C(C(=O)CC(c3cccs3)C2)C1c1ccsc1 (stereo not drawn)
→ -3%	-3%	2%	-0.2%	nt	-7%	i	-1.0%	-25%

New compounds follow
SMILES	Pol III holo inh	Tau filament bind	HEK293 cAMP ctrl	BRCT PPI red	USP2a inhib	ALOX15 inhib	Rhodamine fluor	BRCT PPI green	HADH2 inh
CN1CCN(c2ncc3nc(-c4cccs4)c(=O)n(Cc4cccs4)c3n2)CC1	-18%	i	-6%	-0.5%	293%[activator]	-15%	i	-1.5%	21%
COc1ncc2nc(-c3cccs3)c(=O)n(Cc3ccc(F)cc3)c2n1	-5%	14%	?	2.7%	103%[activator]	-13%	i	2.9%	11%
N#Cc1c2c(c(NCCN3CCOCC3)n3c1nc1ccccc13)CCCC2	-1%	8%	?	-0.2%	3%	-5%	i	-2.2%	-15%
N=c1c(C(=O)NC2CCCC2)cc2c(=O)n3ccccc3nc2n1CCN1CCOCC1	-2%	-2%	3%	-1.4%	-7%	-7%	i	-1.5%	13%
O=C(CN1C(=O)c2cccc3cccc1c23)NCc1ccc2c(c1)OCO2	2%	84%	11%	-1.0%	11%	-7%	i	-1.1%	-11%
Cc1cc(C)c2nc(N3CCCC3)c(C#N)cc2c1	-7%	53%	19%	0.8%	209%	2µM*	i	-1.5%	2%
COc1ccc(-n2c(=O)c(C)nc3cnc(N(C)C)nc32)cc1	-2%	-8%	22%	0.1%	24%	10%	i	4.2%	-2%
COCCCn1c(=N)c(C(=O)NCC2CCCO2)cc2c(=O)n3ccccc3nc21 (stereo not drawn)	-10%	44%	24%	-0.4%	2%	25µM*	i	-1.6%	i
CCOC(=O)N1CCN(C2=Nc3cccc4cccc2c34)CC1	-11%	161%	-12%	0.0%	2%	2%	i	0.4%	12%
c1csc(-c2nc3nc4ccccc4nc3n2Cc2ccc3c(c2)OCO3)c1	2%	3.2µM*	-8%	-1.4%	48%[activator]	-22%	i	1.5%	?
COCCn1c(=O)c(CCc2ccccc2)nc2cnc(Nc3ccccc3)nc21	-12%	105%	20%	0.5%	135%[activator]	5%	i	7.9%	8%
COc1ccc(-c2nc3cnc(N4CCNCC4)nc3n(Cc3cccs3)c2=O)cc1	-30%	162%	-12%	0.6%	14%	-18%	i	7.2%	18%
CC1=CC(c2ccccc2)n2nc(NS(=O)(=O)c3ccc(C)cc3)nc2N1 (stereo not drawn)	nt	nt	-5%	-2.2%	nt	-7%	nt	-0.1%	25µM*
CCOC(=O)c1cc2c(=O)n3ccccc3nc2n(CCOC)c1=NC(=O)C(C)(C)C	0%	-76%	12%	0.0%	13%	-11%	i	-1.1%	?
COc1ccc(-c2nc3cnc(Oc4cccc(Cl)c4)nc3n(CCC#N)c2=O)cc1	-9%	50%	7%	2.5%	114%[activator]	-13%	i	-1.5%	4%
COc1cc2ccc(=O)oc2c(O)c1O	-8%	?	-10%	-1.4%&0.1%	-8%	13µM*!	i	-2.5%	0.79µM*
C=CCn1c(NC(=O)c2ccccc2)c(C#N)c2nc3ccccc3nc21	-3%	2%	-11%	1.8%	12%	-28%	i	23%	-3%
CCOC(=O)c1sc(NC(=O)c2ccc3ncsc3c2)nc1C	-7%	2%	11%	1.6%	nt	7%	nt	-1.4%	?
N#CCCn1c(=O)c(-c2ccccc2)nc2cnc(Oc3cccc(Cl)c3)nc21	0%	-16%	-12%	-1.2%	46%[activator]	-8%	i	-4.3%	-9%
O=c1c(CCc2ccccc2)nc2cnc(Nc3ccccc3)nc2n1C[C@H]1CCCO1	-7%	36%	10%	-3.2%	167%[activator]	0%	i	4.3%	8%
COc1ccc(Oc2ncc3nc(-c4cccs4)c(=O)n(C)c3n2)cc1	-6%	?	?	-1.1%	100%[activator]	-12%	i	2.9%	1%
COc1cc2ccc(=O)oc2c(O)c1OCC=C(C)C	-9%&-3%	413%&37%	5%&10%	-1.0%	-4%	-12%	i	-1.0%	?
O=c1c(-c2ccc(Cl)cc2)nc2cnc(Nc3ccccc3)nc2n1C[C@H]1CCCO1	-4%	9%	12%	-0.8%	243%[activator]	?	i	-3.9%	-6%
CN(C)CCCNc1c2c(c(C#N)c3nc4ccccc4n13)CCC2	0%	19%	-37%[inhibitor]	-0.3%	-6%	-17%	i	0.5%	-14%
CCN(CC)c1ccc(C2C(C(=O)OCCOC)=C(C)NC3=C2C(=O)CC(C)(C)C3)cc1 (stereo not drawn)	-2%	-16%	4%	-1.5%	36%[activator]	-10%	i	-1.6%	1%
CCN1C(=O)c2cccc3c(S(=O)(=O)NCCCN4CCOCC4)ccc1c23	-1%	16%	3%	-3.3%	5%	-1%	i	-3.0%	-25%
CN(C)c1ncc2nc(CCc3ccccc3)c(=O)n(Cc3cccs3)c2n1	-2%	46%	?	-1.6%	69%[activator]	?	i	1.7%	6%

Only part of the results is shown; count on the stated rates, not on these rows.
